Sfp PPTase inh: qHTS Assay for Inhibitors of Bacillus subtilis Sfp phosphopantetheinyl transferase (PPTase); Biochemical Sfp PPTase activity, qHTS; Potency, µM, without a hit: max response, negative = inhibition, actives largely listed as inhibitors; AID 1490, 2009; actives 3.5% (n = 310,000); 4'-phosphopantetheinyl transferase ffp (Bacillus subtilis), Q9F4F7; active = well fitted inhibition curve with a large enough effect; inconclusive = small, poorly fitted or top-dose-only effect, or another doubt; inactive = no such curve, though single readings can be large or run the other way;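 also: the enzyme is Sfp with the accession as filed and its product quenches rhodamine fluorescence; potency is read from the fitted curve at half-maximal effect; 0% = enzyme reaction without inhibitor and -100% = no enzyme wells; top concentration of the series not given in the record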
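Reaction rates are the 30-min fluorescence difference (ex 525, em 598 nm) in wells containing 15 nM Sfp, 5 uM rhodamine-CoA and 12.5 uM BHQ-2-YbbR at pH 7.6 with 10 mM MgCl2.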
TRPV1 potentiator: HTS Assay for Compounds that Act as Potentiators of the Vanilloid Receptor 1 | actives 0.02% (n = 320,000) | Transient receptor potential cation channel subfamily V member 1 (Homo sapiens), Q8NER1 | potentiation, % at 8.33 µM | TRPV1-expressing cells, Fluo-8 calcium influx, capsaicin EC20 potentiation; host cell line not named in the record; control for the full effect not named in the record; active means potentiation above 80%; inconclusive means 30% to 80%; inactive means below 30%; also: 0% is about no effect
Target sequence (Q8NER1 whole entry, looked up): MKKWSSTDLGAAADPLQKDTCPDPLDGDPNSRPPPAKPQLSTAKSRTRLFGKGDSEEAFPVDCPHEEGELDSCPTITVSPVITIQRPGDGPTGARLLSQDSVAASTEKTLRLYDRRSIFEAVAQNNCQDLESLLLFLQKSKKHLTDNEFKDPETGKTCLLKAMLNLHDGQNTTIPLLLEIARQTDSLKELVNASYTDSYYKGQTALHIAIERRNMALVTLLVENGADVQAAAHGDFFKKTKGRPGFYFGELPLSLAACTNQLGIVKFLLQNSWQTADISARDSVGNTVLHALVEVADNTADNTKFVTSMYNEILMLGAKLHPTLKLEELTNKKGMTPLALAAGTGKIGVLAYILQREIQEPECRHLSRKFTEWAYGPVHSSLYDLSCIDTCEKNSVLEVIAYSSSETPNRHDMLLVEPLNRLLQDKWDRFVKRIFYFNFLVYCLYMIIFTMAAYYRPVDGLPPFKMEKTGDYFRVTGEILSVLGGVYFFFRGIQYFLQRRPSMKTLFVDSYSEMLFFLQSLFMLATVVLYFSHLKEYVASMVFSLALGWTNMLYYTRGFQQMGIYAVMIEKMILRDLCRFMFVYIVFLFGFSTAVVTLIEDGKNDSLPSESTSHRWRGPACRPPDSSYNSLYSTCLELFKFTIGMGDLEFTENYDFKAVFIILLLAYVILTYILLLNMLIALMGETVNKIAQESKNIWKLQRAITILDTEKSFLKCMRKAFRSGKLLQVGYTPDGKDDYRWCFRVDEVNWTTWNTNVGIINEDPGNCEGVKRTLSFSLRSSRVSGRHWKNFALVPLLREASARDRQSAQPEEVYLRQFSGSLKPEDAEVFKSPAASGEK
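Cells expressing TRPV1 were dye-loaded with Fluo-8 and read kinetically: 10 s baseline, 3 min after compound (agonist portion), then 2 min after EC20 capsaicin (allosteric enhancer portion). Calcium-bound dye fluorescence at 480/520 nm.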
ClpP mod: qHTS Assay for Activators of ClpP; actives 1.9% (n = 340,000); Potency, µM (top dose mostly 57.5 µM), without a hit: top-dose activity change, negative = active; purified B. subtilis ClpP, FRET peptide cleavage, 20 min; ATP-dependent Clp protease proteolytic subunit (Bacillus subtilis (strain 168)), P80244; active = well fitted falling curve with a large enough effect; inconclusive = small, poorly fitted or top-dose-only effect; inactive = no such curve, though single readings can be large or run the other way; also: potency is read from the fitted curve at half-maximal effect; the source files actives as falling curves though it sought activators and does not explain the sign; nearly all actives have a fitted effect of over 65% in size; many hits overshoot -100%
Target sequence (P80244 whole entry, looked up): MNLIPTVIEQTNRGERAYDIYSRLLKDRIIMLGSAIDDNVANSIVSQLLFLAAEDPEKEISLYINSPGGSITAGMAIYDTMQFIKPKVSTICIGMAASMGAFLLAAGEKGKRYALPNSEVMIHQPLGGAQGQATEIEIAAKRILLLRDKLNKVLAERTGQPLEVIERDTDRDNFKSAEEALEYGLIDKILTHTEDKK
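FRET quenching reversal measured ClpP activation: 10 microg/mL B. subtilis ClpP at pH 8 with the FRET-FV decapeptide, read at 430 nm after 320 nm excitation. The 20-min minus 0-min signal was scaled between DMSO/no-enzyme wells and ADEP (5.8 microM final).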
gsp antag: qHTS for Antagonists of gsp, the Etiologic Mutation Responsible for Fibrous Dysplasia/McCune-Albright Syndrome: qHTS. gsp-mutant cells, cAMP HTRF, 30 min; control for the full effect not named in the record. Potency, µM (series often up to 76.9 µM), for the others: top-dose activity change, negative = inhibition, usual class: inhibitors. actives 0.4% (n = 340,000). AID 624288, 2012; active = falling curve of any shape with a large fitted effect; inconclusive = falling curve, mostly with a smaller effect; inactive = flat or rising curve; cell line not stated here;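 also: intracellular cAMP measured with PDE inhibitor Ro 20-1724 present during compound exposure; potency is read from the fitted curve at half-maximal effect; % is scaled to controls: 0 for no effect and ±100 for the full control effect; nearly all actives have a fitted effect of over 65% in size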
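Cells, 2000/well, grown 16–24 h in DMEM 10% FBS with 0.5 mg/ml G418, then compounds plus […] (300 uM addition stock), 30 min at 37C. cAMP read by HTRF (cAMP-d2 and anti-cAMP antibody-K in lysis buffer) after 30 min RT.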
Menin-MLL FL inh: qHTS Assay for Inhibitors Targeting the Menin-MLL Interaction in MLL Related Leukemias: Competition With Fluorescein Labeled MLL-derived Peptide; FP activity change, % at 61.4 µM; AID 1766, 2009; Fluorescence polarization, fluorescein-MLL peptide displacement from menin; 290,000 tested, under 10 active; inconclusive = falling polarisation curve, or a change in total fluorescence; inactive = total fluorescence flat and polarisation flat or rising; no compound was filed as active; the % refers to the polarisation; negative = inhibition;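 also: % of control where 0% means no effect; inhibitors lower the polarisation; unlabelled MLL peptide was the positive control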
CtBP-E1A blk: qHTS Assay for Inhibitors of the CtBP/E1A Interaction | actives 0.49% (n = 340,000) | AlphaScreen GST-E1A/His-CtBP binding, 1536-well; hits give low values; control for the full effect not named in the record | AID 651724, 2012 | activity change, % (no concentration beside the values) | CtBP / adenovirus E1A interaction (AlphaScreen); in the data active means activity change below about -65%; inconclusive means about -30% to -65%; inactive means above about -30%; also: % is scaled to controls: 0 for no effect and ±100 for the full control effect; compound concentration not given in the record
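AlphaScreen with 125 nM GST-E1A and 125 nM His-CtBP (5X stocks) in Tris pH 8.0, 300 mM NaCl, BSA, Tween 20, TCEP. Compounds preincubated 2 h at 37 deg C, then glutathione donor/nickel acceptor beads added for 1 h at 37 deg C in dark.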
gsp agonist: qHTS for Agonist of gsp, the Etiologic Mutation Responsible for Fibrous Dysplasia/McCune-Albright Syndrome: qHTS; actives 0.13% (n = 340,000); gsp mutant cells, cAMP HTRF, 30 min; control for the full effect not named in the record; Potency, µM (top dose mostly 76.9 µM), for the others: at the highest dose activation (cAMP increase), most hits filed as activators; AID 624287, 2012; active = well fitted activation curve with a large enough effect; inconclusive = small, poorly fitted or top-dose-only effect, or another doubt; inactive = no such curve, though single readings can be large or run the other way; cell line not stated here;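 also: phosphodiesterase inhibitor Ro 20-1724 added with compounds to block cAMP breakdown; potency is read from the fitted curve at half-maximal effect; nearly all actives have a fitted effect of over 60% in size; about a fifth of the inactives were tested at one dose only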
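Cells in DMEM/10% FBS with G418 were pretreated with compounds in DMSO plus […] (300 uM stock) for 30 min at 37C. cAMP was measured by HTRF (cAMP-d2 plus anti-cAMP antibody-K) after 30 min at room temperature.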
An asterisk follows results filed as active; ? = inconclusive; / = no result given; & = joins results of further samples; [ ] = dose if it differs, or a comment.

SMILES	Sfp PPTase inh	TRPV1 potentiator	ClpP mod	gsp antag	Menin-MLL FL inh	CtBP-E1A blk	gsp agonist
Fc1ccc(N=C2NN=C(c3cc(F)ccc3F)CS2)cc1	-9%	-9	-1.0%	9%	6.7	1	-4%[15.4 µM]
O=C(NNc1ccccc1[N+](=O)[O-])Nc1ccc(F)cc1	-5%	3	-1.8%	4%	7.1	-9	1%[15.4 µM]
CC(=O)Nc1c(O)c2ccccc2[nH]c1=O	18µM*	0	/	/	0.0	-11	8%[15.4 µM]
O=C(NCc1cccs1)C1CCCN(S(=O)(=O)c2ccc(Br)s2)C1 (configuration not stated)	-9%	-29	-0.8%	4%	4.2	-1	-42%[inhibitor]
S=c1[nH]nc(-c2ccco2)n1/N=C/c1cccc(Cl)c1	-4%	9	-1.9%	-14%	?	-18	-1%[15.4 µM]
CC(CN1CCCCC1)OC(=O)c1ccco1 (configuration not stated)	23%	4	/	4%	1.5	0	-2%[15.4 µM]
CCCNC(=O)c1ccc(COc2ccc(C)cc2)o1	-4%	2	-1.2%	-1%	-5.8	/	-16%
O=C(NCc1cccnc1)C(=O)c1c[nH]c2ccccc12	9%	29	-0.6%	-4%	0.5	6	-1%
Cc1ccccc1NC(=O)c1ccc(NC(=O)c2ccco2)cc1	13%	0	0.3%	-1%	0.9	7	-23%
COc1ccc(C2C(C(N)=O)=C(C)Nc3nc(CCCO)nn32)cc1OC (configuration not stated)	3%	19	/	4%	-7.8	-5	0%
CCOC(=O)NN1C(=O)c2ccccc2NC1c1ccc(OC)cc1 (configuration not stated)	-2%	-3	32µM*	2%	0.8	7	-19%
COc1cc(/C=N/O)ccc1Oc1ccc([N+](=O)[O-])cc1[N+](=O)[O-]	-7%	5	-2.1%	-2%	-6.3	-9	?
CCCCN(CC)CCNC(=O)c1cc2c(=O)[nH]c3ccccc3c2s1	15%	0	/	3%	-0.7	0	-26%
CC1=C(C(=O)N2CCOCC2)C(c2cccs2)NC(=O)N1 (configuration not stated)	2%	1	-2.0%	3%	2.0	7	-22%
COc1ccc(S(=O)(=O)N(C)C[C@H]2Oc3ccc(NS(=O)(=O)c4ccccc4)cc3C(=O)N([C@H](C)CO)C[C@@H]2C)cc1	/	/	0.2%	-14%	/	0	/
COc1ccc(S(=O)(=O)NC(C)C(=O)NCc2ccncc2)cc1C (configuration not stated)	11%	4	/	-10%	1.7	0	0%
N#Cc1c(-c2ccc(Cl)cc2)cc(-c2ccccc2)nc1SCC(=O)O	-14%	5	-10%	?	5.2	/	-11%
O=C(N/N=C/c1cccc([N+](=O)[O-])c1)c1cccs1	-1%	-8	-1.5%	6%	2.4	2	10%[15.4 µM]
CC(C)(C)C1CCC(C(=O)Nc2ccccc2)CC1 (configuration not stated)	5%	-11	-1.8%	-10%	1.1	4	0%
CCc1nc2oc3ccc(C)cc3c(=O)c2cc1C(=O)OC	18%	16	0.6%	38%[activator]	0.2	7	-1%[15.4 µM]
COc1cc(OC)cc(C(=O)NNC(=O)c2cc3ccccc3cc2O)c1	?	8	-2.6%	-10%	1.0	/	17%
N#C/C(=C\c1ccc(N2CCOCC2)o1)c1nc2ccccc2[nH]1	32µM*	11	2.6%	?	?	?	-86%[inhibitor]
CCOC(=O)c1ccc(NC(=O)CC2S/C(=N/N=C3/NC(=O)CS3)NC2=O)cc1 (configuration not stated)	-36%	4	/	2%	-1.7	?	22%[15.4 µM]
COc1ccc(S(=O)(=O)N2CCCC(C(=O)NCCCn3ccnc3)C2)cc1OC (configuration not stated)	13%	-3	?	-4%	-4.8	?	-8%[15.4 µM]
Cc1ccccc1CNC(=O)C1CCCN(c2cnccn2)C1 (configuration not stated)	2%	-4	-9.3%	6%	-0.8	/	?
O=C1CSC(c2ccccc2)N1Cc1ccccc1 (configuration not stated)	2%	6	/	/	-2.8	/	/
Cn1cc(C(=O)NCC(=O)Nc2ccccc2Br)cn1	/	/	-0.5%	20%	/	3	-63%[inhibitor]
N#CC(=C1C=C(Br)C(=NO)C=C1Cl)c1cccc2ccccc12	/	/	0.7%	/	/	2	6%
Cc1ccc(Sc2ncccc2C(=O)O)cc1C	9%	-8	-0.8%	-4%	-2.2	8	-23%
COc1cccc(NC(=S)N(CCc2c(C)[nH]c3ccc(C)cc23)Cc2cccs2)c1	-12%	1	-4.3%	-5%	1.6	-27	18%
CCOC(=O)Cn1nc2sc3ccccc3n2c(=O)c1=O	13%	-4	/	6%	1.7	4	-13%[15.4 µM]
CC(C)C(=O)Nc1ccc(-c2nnc(-c3ccccc3)o2)cc1	7%	0	/	0%	-13	1	-24%
Cc1ccc(-c2n[nH]c(=S)n2/N=C/C=C/c2ccccc2[N+](=O)[O-])cc1	?	-6	-2.8%	-15%	1.4	-17	-28%
CC(=O)N1c2ccc(S(=O)(=O)NCC3CCC(C(=O)NCc4ccco4)CC3)cc2CC1C (configuration not stated)	3%	-14	0.8%	-4%	-1.8	4	30%
COc1cc2oc3ccccc3c(=O)c2cc1OC	6%	-5	4.2%	-8%	-2.9	-1	-11%
CCOc1ccc(Nc2oc(Cc3ccccc3)nc2C#N)cc1	3%	-13	-1.2%	-10%	0.2	-9	?
C=CCNC(=O)CCCCC(=O)NCC=C	14%	8	0.6%	4%	-0.2	1	-18%
CC(C)(C)N1CC(C(=O)Nc2ccc(S(N)(=O)=O)cc2)CC1=O (configuration not stated)	10%	5	1.2%	5%	0.5	/	-26%
COC(=O)c1c(NC(=O)c2ccn(C)n2)sc2c1CCC2	7%	-6	3.3%	-11%	-5.1	-3	1%
C/C(=N\NC(=O)C(=O)Nc1cc(C)ccc1C)c1ccncc1	22%	4	-3.8%	-10%	4.1	/	-25%
CCN(CC)CCN(CC)Cc1ccccc1Br	4%	-10	0.2%	11%	0.2	6	-51%[inhibitor]
Cc1csc(CN(C)C(=O)CC2C(=O)NCCN2Cc2ccc(F)c(F)c2)n1 (configuration not stated)	-16%	3	-21%	5%	/	-4	30%
COc1ccc(NC(=O)CN2CCN(CC(=O)Nc3ccccc3F)CC2)c(OC)c1	4%	-8	3.7%&-2.8%	-10%	0.2	-7	-47%[inhibitor]
Brc1ccc(C=Nc2ccc3c(c2)OCCOCCOCCO3)s1	0%	2	-1.4%	6%	0.9	-21	9%[15.4 µM]
O=C1CCC([N+](=O)[O-])C(c2cccc(Br)c2)N1 (configuration not stated)	-1%	-5	0.5%	16%	-1.0	0	0%
NC(=O)C1(N2CCCCC2)CCN(C(=S)Nc2cccc(Cl)c2)CC1	-11%	-1	-0.1%	3%	4.9	4	10%[15.4 µM]
O=C(NCC1CC1)Nc1cccc(Cl)c1	-21%	-1	-1.1%	12%	-11	-3	-28%
O=C(CSc1ncn(-c2ccccc2)n1)Nc1ccc2c(c1)OCCO2	-2%	2	0.3%	3%	2.1	8	15%
COC(=O)C1=C(C)N(CCc2c[nH]c3ccc(OC)cc23)C(=O)C1	-8%	-10	/	0%	1.8	26	-44%[15.4 µM]
CCOc1ccc2nc(N(CCCN(C)C)C(=O)c3ccc4c(c3)CCCC4)sc2c1	-24%	-8	-6.3%	10%	/	-24	8%
COc1ccc(OC)c2sc(N(CCN(C)C)C(=O)/C=C/c3cccs3)nc12	-17%	?	/	13%	/	-6	-11%[15.4 µM]
O=C1C(=O)N(CCN2CCOCC2)C(c2ccccc2)/C1=C(\O)c1ccc2c(c1)OCCO2 (configuration not stated)	11%	10	-14%	21%	/	3	?
COC(=O)c1ccc(OCC(O)CN(CC(C)C)CC(C)C)cc1 (configuration not stated)	6%	-7	-1.6%	5%	0.1	4	-16%
O=C(CCc1nc(-c2ccccc2)no1)NCc1ccccc1CN1CCOCC1	/	1	-0.6%	5%	/	14	-12%
COC(=O)c1ccc(NC(=O)CSCc2ccccc2C)cc1	-3%	-3	-0.9%	-19%	1.0	0	24%
CCC1NC(=O)c2cc(S(N)(=O)=O)c(Cl)cc2N1 (configuration not stated)	/	-2	5.4%	-5%	/	7	/
Cc1ccccc1CS(=O)(=O)c1ccc(C(=O)N2CCOCC2)cc1[N+](=O)[O-]	24%	24	-0.7%	-8%	-0.2	/	13%
CCCCC(c1nnnn1C1CCCC1)N1CCN(C2CCCC2)CC1 (configuration not stated)	5%	-20	1.1%	-11%	0.9	-2	-14%
CC(Sc1nc(N)cc(=O)[nH]1)C(=O)Nc1cccc(Cl)c1 (configuration not stated)	?	23	-1.5%	12%	8.5	-1	20%
O=C(NCCc1ccc(S(=O)(=O)N2CCCC2)cc1)c1cccs1	1%	-19	0.8%	-5%	1.3	7	-62%[inhibitor]

(more compounds)
SMILES	Sfp PPTase inh	TRPV1 potentiator	ClpP mod	gsp antag	Menin-MLL FL inh	CtBP-E1A blk	gsp agonist
CCn1nnc(NC(=O)c2cccnc2)n1	-28%	-2	0.7%	4%	1.8	-3	-22%
COC(=O)c1c(NC(=O)COC(=O)Cn2cnc3ccccc32)sc2c1CCCC2	-15%	-9	-2.1%	-13%	5.4	-8	-7%[15.4 µM]
CCC(C)C(=O)Nc1nc(C)c(-c2csc(Nc3cc(OC)ccc3OC)n2)s1 (configuration not stated)	6%	16	-24%	6%	5.0	/	?
CN1N=C(C(=O)N=c2sc3ccccc3n2C)CCC1=O	/	/	/	8%	/	-20	?
O=C(O)Cc1ccc(-c2ccccc2-c2ccccc2)cc1	28%	-6	2.7%	-4%	-2.4	0	-31%[inhibitor]

Screens from PubChem.
